2A firefly – lowers the firefly signal of an FMDV 2A StopGo reporter; HEK cells with a luciferase reporter of 2A StopGo recoding; Potency, µM (highest dose often 57.5 µM), without a hit: at the top dose signal change, negative = less light; 120,000 compounds, 0.23% hits; AID 1745856; active = well fitted falling curve with a large enough effect; inconclusive = small, poorly fitted or top-dose-only effect; inactive = no such curve, though single readings can be large or run the other way; also: nearly all actives have a fitted effect of over 60% in size; overnight with compound
2A Renilla – lowers the Renilla signal of an FMDV 2A StopGo reporter | 120,000 compounds, 0.32% hits | AID 1745857 | Potency, µM (highest dose often 57.5 µM), inactives show at the top dose signal change, negative = less light | HEK cells with a luciferase reporter of 2A StopGo recoding; active means well fitted falling curve with a large enough effect; inconclusive means small, poorly fitted or top-dose-only effect; inactive means no such curve, though single readings can be large or run the other way; also: nearly all actives have a fitted effect of over 55% in size; overnight with compound
Starred values were filed as active, the others as inactive; ? = inconclusive; & = joins results of further samples; [ ] = another dose, or the depositor's remark. % is scaled to controls: 0 for no effect and ±100 for the full control effect; potency is read from the fitted curve at half-maximal effect.

structure | 2A firefly | 2A Renilla
COc1ccc(/C=C(/C#N)C(=O)Nc2cccc3ncccc23)cc1OC | 1% | -3%
CCOCCCNc1nc2ccccc2n2c(CC)nnc12 | 22% | 8%
COc1cccc(CSC2=NS(=O)(=O)c3ccccc3N2Cc2ccccc2)c1 | -16% | 14%
Cc1ccc(-c2nnc(CCC(=O)N3CCc4sccc4C3)o2)cc1 | 5% | -5%
COC(=O)c1ccc(C2Sc3ccccc3NC3=C2C(=O)c2ccccc23)cc1 (centres undefined) | 5% | 272%[activator]
COc1ccccc1NC(=O)CSc1ncc2c(n1)-c1cc(Cl)ccc1N(C)S2(=O)=O | 7% | 41%[activator]
CC(C)c1ccc(NC(=O)CSc2cnc3cc(S(=O)(=O)N4CCCCC4)ccc3n2)cc1 | 14% | -5%
Cc1ccc(NC(=O)CCNS(=O)(=O)c2cccc3nsnc23)cc1 | -12% | 36%[activator]
CCOC(=O)c1ccc(NC(=O)CSc2nc(CCSC)c(C)[nH]2)cc1 | 5% | -13%
O=C(Cc1c[nH]c2ccccc12)NCCc1ccc(Cl)cc1 | 7% | 4%
Cc1cc(C(C)(C)C)ccc1OC(=O)c1ccc(C#N)cc1 | 13% | 6%
O=C(Nc1cccc(Cl)c1)N1CCSc2ccccc21 | 1% | -10%
O=C(Nc1ccc(SC(F)F)cc1)c1n[nH]c(=O)c2ccccc12 | 160%[activator] | 10%
CCOc1ccccc1NC(=O)Cn1c(=O)n(Cc2ccccc2)c(=O)c2c1c1cc(C)ccc1n2C | -16% | -14%
CCN(Cc1ccccc1)C(=O)C(=O)c1c(C)n(C)c2ccccc12 | 16% | 146%[activator]
COc1ccccc1-c1nn(CCC(=O)Nc2ccc(C)cc2)c2nc(C)cc(C)c12 | ? | 19%&-26%
CCCOc1ccccc1C(N)C(=O)OCC (centres undefined) | 22% | 17%
Cc1ccc(CCNC(=O)c2ccc3c(c2)nc2n3CCC(C)C2)cc1 (centres undefined) | -21% | -17%
COC(=O)c1nc2n(n1)C(c1cc(OC)ccc1OC)C(C(=O)Nc1ccc(C)cc1C)=C(C)N2 (centres undefined) | -14% | -15%
CC(=O)Nc1ccc(C(=O)CSc2nnc(-c3ccccc3)n2-c2ccccc2)cc1 | 2% | 0%
CCc1ccc(NC(=O)Cc2nc(-c3[nH]c(C)c(C(=O)OC)c3C)cs2)cc1 | -1% | 14%
CCC(NC(=O)Cn1cnc2sc(C)c(-c3ccccc3)c2c1=O)c1ccc(C)cc1 (centres undefined) | -7% | -16%
Cc1ccc2c(CN3CCN(Cc4ccccc4Cl)CC3)cc(=O)oc2c1 | -14% | -7%
Cc1ccc(NC(=O)Nc2nnc(N(CC(C)C)CC(C)C)s2)cc1Cl | 0% | 16%
CCCCc1c(C)[nH]n(-c2nc3ccccc3[nH]2)c1=O | 0% | ?
CCN(CC)S(=O)(=O)c1cccc(C(=O)NC(c2ccc3c(c2)OCCO3)C(C)C)c1 (centres undefined) | -1% | 181%[activator]
CCOC(=O)C(CC(C)C)NC(C)=O (centres undefined) | -10% | 0%
Cc1cccc(C)c1NC(=O)Cn1c(=O)n(Cc2ccc3c(c2)OCO3)c(=O)c2oc3ccccc3c21 | -8% | 4%
O=C(NC1CCS(=O)(=O)C1)c1cc2sccc2n1Cc1ccc(Cl)cc1 (centres undefined) | -28% | -10%
CNC(=O)c1ccc(NC(=O)Cc2ccc(OC)cc2)cc1 | 0% | -4%
Cc1ccc(C(=O)c2sc(Nc3cc(C)cc(C)c3)nc2N)cc1 | 46%[activator] | 16%
CCc1nnc2sc(-c3ccc(OC)c(NC(=O)C(C)(C)C)c3)nn12 | 93%[activator] | 83%[activator]
COc1ccc(NS(=O)(=O)c2ccc3c(c2)NC(=O)CCS3)c(OC)c1 | 17% | 24%
Cc1cccc(NC(=O)CSc2nc(=O)n(Cc3cccnc3)c3c2CCC3)c1C | -15% | 23%
O=C(NCCO)c1cc2ccccc2[nH]1 | 5% | 7%
O=C(/C=C/c1ccccc1O)c1ccc(Cl)cc1Cl | 0% | 83%[activator]
CC1CC1c1ccc(/C=C/C(=O)N(Cc2ccccc2)C2CC2)o1 (centres undefined) | 32%[activator] | 42%[activator]
O=C(O)C1C2CCC(C2)C1C(=O)NCCCN1CCOCC1 (centres undefined) | 5% | 0%
CCN(CC)C(=O)c1sc2c(c1C)c(=O)n(-c1ccc(Cl)c(Cl)c1)c(=O)n2Cc1cc(=O)n2c(C)cccc2n1 | -17% | -13%
CCN(CC)C(CNC(=O)Cc1ccccc1OC)c1ccsc1 (centres undefined) | 25% | 16%
Cc1ccc(N(CC(=O)N2CCN(c3ccc(Cl)cc3)CC2)S(=O)(=O)c2c(C)nn(C)c2C)cc1 | -21% | -11%
Cc1cccc(C(=O)OCc2cc(=O)n3ccsc3n2)c1 | 1% | -4%
CC(NC(=O)Cn1nc(C(=O)O)c2ccccc2c1=O)c1ccc(Cl)cc1Cl (centres undefined) | 4% | -1%
CCc1ccccc1NC(=O)CSc1nc2c(oc3ccccc32)c(=O)n1-c1ccccc1 | -24% | -18%
COC(=O)c1cccc(C(=O)NCC2CCC2)c1 | 30% | 10%
CC1Cc2cc(S(=O)(=O)CCC(=O)Nc3ccc(OC(F)(F)F)cc3)ccc2N1C(=O)C1CC1 (centres undefined) | ? | -1%
CC(NC(=O)C(c1ccccc1)C1CCCC1)C12CC3CC(CC(C3)C1)C2 (centres undefined) | 4% | -4%
COCCn1c(-n2nc(C)cc2C)nc2c1c(=O)n(CCc1ccccc1)c(=O)n2C | ? | ?
CCCC(=O)Nc1ccccc1NC(=O)c1ccc(C(C)(C)C)cc1 | 9% | -3%
CCOC(=O)C(NC(=O)c1ccccc1)C(C)C (centres undefined) | 5% | -12%

Some of the entries above, set out differently:
Values in the order – 2A firefly, 2A Renilla
- CC(NC(=O)Cn1nc(C(=O)O)c2ccccc2c1=O)c1ccc(Cl)cc1Cl (centres undefined)
  4%, -1%
- CCc1ccccc1NC(=O)CSc1nc2c(oc3ccccc32)c(=O)n1-c1ccccc1
  -24%, -18%
- COC(=O)c1cccc(C(=O)NCC2CCC2)c1
  30%, 10%

Grouped by structure, the entries above with a thiophene ring, fused or not
structure | 2A firefly | 2A Renilla
Cc1ccc(-c2nnc(CCC(=O)N3CCc4sccc4C3)o2)cc1 | 5% | -5%
CCC(NC(=O)Cn1cnc2sc(C)c(-c3ccccc3)c2c1=O)c1ccc(C)cc1 (centres undefined) | -7% | -16%
O=C(NC1CCS(=O)(=O)C1)c1cc2sccc2n1Cc1ccc(Cl)cc1 (centres undefined) | -28% | -10%
CCN(CC)C(=O)c1sc2c(c1C)c(=O)n(-c1ccc(Cl)c(Cl)c1)c(=O)n2Cc1cc(=O)n2c(C)cccc2n1 | -17% | -13%
CCN(CC)C(CNC(=O)Cc1ccccc1OC)c1ccsc1 (centres undefined) | 25% | 16%

The list goes on:
structure | 2A firefly | 2A Renilla
O=C(Nc1ccc(Cl)cc1Cl)c1cc(S(=O)(=O)N2CCc3ccccc32)ccc1F | -18% | -9%
Cc1[nH]c2ccccc2c1C1c2ccccc2C(=O)N1CC(=O)N(C)C (centres undefined) | 5% | 4%
CS(=O)(=O)Nc1ccc(C2=NN(C(=O)CCC(=O)O)C(c3ccc(F)cc3)C2)cc1 (centres undefined) | -13% | -11%
Cc1nn2c(NCCN(C)C)cc(C(C)(C)C)nc2c1-c1ccccc1 | -10% | -11%
Cc1ccccc1OCC(=O)Nc1nnc(S(=O)(=O)N2CCCC2)s1 | -17% | -11%
Cc1ccc(CN2CCC(CNC(=O)Nc3cn(CC(C)C)c(=O)c4ccccc34)C2)cc1 (centres undefined) | -4% | -10%
COc1cc2c(cc1OC)CN(C(=O)c1sc3cccc(F)c3c1C)CC2 | 16% | 25%
N#Cc1ccc(Oc2ccc(C(=O)OCC(=O)c3ccc(Cl)cc3)cc2)cc1C#N | 1% | -2%
Cc1cccc(NCc2cc(C(C)(C)C)c(O)c(C(C)(C)C)c2)c1 | 0% | 1%
COCCNc1nc2c(c(=O)n(C)c(=O)n2C)n1CCOC | 2% | -4%
COCCn1c(C)cc(O)c(C(c2ccccc2OC)N2CCCCC2)c1=O (centres undefined) | -23% | -10%
CCCc1nnc(NC(=O)c2cc(-c3ccc(OC)cc3)on2)s1 | 0% | 11%
O=C(CSCc1coc(-c2ccc(Cl)cc2)n1)NCCc1ccccc1 | ? | ?
CCOc1ccc(-c2cc(NC(=O)Nc3cccc(C(C)=O)c3)c(C(=O)OC)s2)cc1 | 14% | 2%
COc1ccccc1C(=O)Nc1c(C(=O)NC(C)(C)C)oc2ccccc12 | 5% | 72%[activator]
O=C(OCc1cc(=O)oc2cc(O)ccc12)c1ccc(N2CCOCC2)nc1 | 1% | -7%[1.06 µM]
COc1cc(OC)c(NC(=O)C(C)n2nc(-c3ccc(C)cc3)c3c(c2=O)CCCC3)cc1Cl (centres undefined) | -18% | -8%
CCc1cccc(C)c1NC(=O)CCc1ncc(-c2ccccc2F)o1 | 0% | -5%
O=C(NCCc1ccccn1)c1ccc(C2CCCCC2)cc1 | 0% | -10%[1.06 µM]
O=C(Nc1cc(Cl)ccc1F)c1cccc2ccccc12 | 135%[activator] | 57%[activator]
O=C(Oc1ccc2cc(-c3ccccc3)c(=O)oc2c1)c1ccco1 | 85%[activator] | 11%
O=C(COc1ccccc1)Nc1ccc2c(=O)c3ccccc3oc2c1 | 0% | -10%
CC(=O)c1sc(-c2ccc(Br)cc2)nc1C | 156%[activator] | 1%
COc1ccc(F)cc1S(=O)(=O)NCC(c1ccco1)S(=O)(=O)c1cccs1 (centres undefined) | -11% | 233%[activator]
CCNC(=O)c1ccccc1N | 0% | 5%
COc1ccc2ccccc2c1CN1CCc2ccccc2C1 | ? | ?
O=C(Nc1ccc2oc(-c3ccc(F)cc3)nc2c1)c1ccc([N+](=O)[O-])o1 | 111%[activator] | -11%
COc1cccc(Cn2c(=O)cc(C)c3c(C)nn(C)c32)c1 | ? | ?
O=S(=O)(c1ccc(Cl)cc1)c1nnn2c1nc(NCc1ccccc1)c1sccc12 | -25% | -8%
CCOC(=O)c1c(S(=O)(=O)N2CCCC(C(=O)Nc3cccc(C#N)c3)C2)c(C)n(C)c1C (centres undefined) | -4% | -12%
Cc1ccc(NC(=O)CC(C)(C(=O)O)c2ccccc2)c(C)c1 (centres undefined) | 4% | -1%
Cc1ccc(C(=O)Nc2ccc(Br)cc2)cc1S(=O)(=O)NCc1ccccc1 | ? | 72%[activator]
O=C(NCCc1ccccc1)c1ccc(Cn2c(SCc3cccc(F)c3)nc3cccnc32)cc1 | 0% | 29%
Cc1nc(/C=[N+](\[O-])C(C)(C)/C=N/O)n(O)c1C | -4% | -2%
CCCCC1CCC(c2nc(C#N)c(N3CCN(C)CC3)o2)CC1 (centres undefined) | -18% | -17%
Cc1ccc(C(=O)Nc2ccc(C(=O)O)cc2)cc1S(=O)(=O)N1CCC(C)CC1 | 22%&-14% | 18%&-10%
O=S(=O)(NCc1csc(-c2ccccc2)n1)c1ccccc1 | -26% | -6%
Cn1c(CC2CCS(=O)(=O)C2)nnc1SCC(=O)Nc1ccc(Oc2ccccc2)cc1 (centres undefined) | 0% | -17%
CCCCNC(=O)Nc1ccccc1CC(N)=O | 17% | 17%
N#CC1(NC(=O)COC(=O)CSc2nc3ccccc3o2)CCCCC1 | -3% | -11%
Cc1cc2nc(/C=C/c3cccc(C(F)(F)F)c3)sc2cc1C | 43%[activator] | 1%
C=CCN(CC=C)Cc1c(C)[nH]c2c(C)cc(C)cc2c1=O | 1% | -3%
Cc1ccc(-c2c3c(=O)n(C)c(=O)n(C)c3c3cnc4ccccc4n23)cc1 | 12% | -4%
O=C(C1CCCCC1)N(Cc1cccnc1)c1nc2c(F)cc(F)cc2s1 | 7% | -4%
Oc1ccc(O)c([S+]2CCCC(C3CCCCC3)C2)c1 (centres undefined) | 3% | -1%
CC(=O)Nc1nc2n(n1)C(c1ccc(F)cc1)C=C(c1ccc(Cl)cc1)N2 (centres undefined) | 0% | -9%
O=C(Sc1cccc2cccnc12)c1ccccc1Cl | 18% | -9%
N#Cc1cccc(/C=C/C(=O)c2ccsc2)c1 | 87%[activator] | 28%
COc1ccc(-c2nc(SCC(=O)Nc3c(C)cc(C)cc3C)n[nH]2)cc1 | 19% | -4%
CCc1ccccc1Nc1nc(-c2c(C)nc3sccn23)cs1 | -25% | ?

More records.
structure | 2A firefly | 2A Renilla
COc1ccc(-c2noc(-c3ccc(NCc4ccco4)c([N+](=O)[O-])c3)n2)cc1 | -13% | -14%
CCOc1cc2[nH]c(=O)n(CCC(=O)N3CCN(c4ccccc4)CC3)c(=O)c2cc1OCC | -6% | 2%
COCCCNC(=O)N1[C@H](c2cccs2)[C@@H](C)C(=O)[C@@H](C)[C@@H]1c1cccs1 | -8% | -14%
Cc1cc([N+](=O)[O-])ccc1NC(=O)CSc1nccn1C | 1% | 2%
Cc1[nH]c2ccc(C(=O)N(Cc3ccccc3F)C3CC3)cc2c1C | 23% | 266%[activator]
Cn1nc(C(=O)N2CCCc3ccc(F)cc32)c2ccccc2c1=O | 6% | 9%
CC1CCCCN1C(=O)CN1CCN(C(=O)CCc2c[nH]c3ccccc23)CC1 (centres undefined) | -4% | -6%

Bioassay records: PubChem, National Center for Advancing Translational Sciences (NCATS)

The list is partial; rates above refer to the full screens.
